# PAFAH1B2 FP inh: PAFAH1B2 enzyme inhibitors, primary screen, biochemical, fluorescence polarization, human | recombinant PAFAH1B2, FP-rhodamine activity probe | actives 1.2% (n = 340,000) | inhibition, % at 3.39 µM | Platelet-activating factor acetylhydrolase IB subunit alpha2 (Homo sapiens), P68402;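 active means inhibition above the mean of all tested compounds plus 3 SD, cut at about 24% in these data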;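 further: 0% = enzyme with DMSO and 100% = wells lacking PAFAH1B2; many of its hits are not listed in these tables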
# PAFAH1B3 inh: PAFAH1B3 enzyme inhibitors, primary screen, biochemical, fluorescence polarization, human | recombinant PAFAH1B3, FP-rhodamine probe | inhibition, % at 3.39 µM | actives 0.28% (n = 340,000) | AID 492972, 2010;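 active means inhibition above the screen-wide average of all tested compounds plus 3 SD, cut at about 25% in these data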;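 further: 0% = enzyme with DMSO only and 100% = wells lacking PAFAH1B3 protein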
# PME-1 inh: PME-1 inhibitors via competitive probe labeling, primary screen, biochemical, fluorescence polarization, FP-Rh probe, HTS; Protein phosphatase methylesterase 1 (Homo sapiens), Q9Y570; recombinant PME-1; inhibition, % at 5.9 µM; actives 0.53% (n = 320,000); AID 2130, 2009;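 active means inhibition above the campaign mean of all compounds plus 3 SD, cut at about 26% in these data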;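 further: competitive labeling of PME-1 active site by serine hydrolase directed probe; 0% = PME-1 with DMSO and 100% = wells lacking PME-1 enzyme; inhibitors block probe labeling so polarization falls and inhibition rises; many of its hits are not listed in these tables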
# PAD4 inh: human PAD4 inhibitors, primary screen, biochemical, fluorescence polarization, 1536-well format. recombinant PAD4, RCA probe fluorescence polarization. actives 0.41% (n = 330,000). inhibition, % at 6.36 µM;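 active means percent inhibition above a cutoff equal to the mean of all tested compounds plus 3 SD, cut at about 15% in these data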;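 further: 0% = PAD4 with RCA probe and DMSO and 100% = probe without PAD4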
# GSTO1 inh: inhibitors of recombinant GSTO1, primary screen, counter-screen for RBBP9 inhibitor project, biochemical, fluorescence polarization. inhibition, % at 5.96 µM. Glutathione S-transferase omega-1 (Homo sapiens), P78417. activity-based probe fluorescence polarization. actives 1.1% (n = 300,000). AID 1974, 2009;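 active means inhibition above the campaign mean inhibition plus 3 SD, cut at about 35% in these data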;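 further: 0% = GSTO1-1 with DMSO and 100% = wells lacking GSTO1-1 enzyme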
# Target sequence (P78417 whole entry, looked up): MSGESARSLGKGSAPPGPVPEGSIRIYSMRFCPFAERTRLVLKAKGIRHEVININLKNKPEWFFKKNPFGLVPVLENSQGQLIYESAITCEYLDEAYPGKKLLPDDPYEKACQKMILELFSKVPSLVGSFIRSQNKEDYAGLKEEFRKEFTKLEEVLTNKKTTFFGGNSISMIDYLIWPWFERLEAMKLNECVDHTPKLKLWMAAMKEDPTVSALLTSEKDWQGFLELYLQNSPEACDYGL
# Starred values were filed as active, the others as inactive; · = no result given.
SMILES,PAFAH1B2 FP inh,PAFAH1B3 inh,PME-1 inh,PAD4 inh,GSTO1 inh
Cc1ccc(S(=O)(=O)N(C)C)cc1NC(=O)COC(=O)CCC1CCCC1,2,-9,0,-4,1
Cc1ccc2nc(N3C(=O)C(O)=C(C(=O)c4ccc(C)o4)C3c3cccc(O)c3)sc2c1 (stereo not drawn),-3,5,-14,-6,-2
O=C(CCC(=O)N1CCN(S(=O)(=O)c2ccc(Cl)cc2)CC1)Nc1ccc(Cl)cc1Cl,6,4,5,-2,4
Cc1ccn2c(=O)nc(SCc3cccc(C(F)(F)F)c3)nc2c1,4,-5,5,-6,-24
CC(C)Oc1c(Br)cc(Br)cc1/C=N/NC(N)=S,-1,5,0,2,2
CCc1n[nH]c(=S)n1/N=C/c1c[nH]c2ccc(Br)cc12,4,4,4,2,-20
CN(C)S(=O)(=O)c1cccc(NC(=O)COC(=O)c2cc3ccccc3oc2=O)c1,1,4,4,1,-1
Cc1ccc([N+](=O)[O-])cc1N=Cc1ccc(Br)s1,4,4,-4,-2,11
CCOc1ccccc1C(=O)OCC(=O)Nc1ccc(OC(F)F)cc1,3,5,0,-2,2
CC1CCN(c2ccc(C(=O)OCC(=O)NCCN3C(=O)CSC3=O)cc2[N+](=O)[O-])CC1,4,4,-3,0,2
Cc1nc2cc(C(=O)OCC(=O)NC(C)C(C)C)ccc2n1-c1ccccc1 (stereo not drawn),-1,8,-1,-11,1
CC(C)=CC(=O)OCC(=O)Nc1ncc(Cl)c(C)c1Cl,6,1,-7,-5,2
CC(C)Oc1ccc(C(=O)OCC(=O)NC2CCCCCC2)cc1,0,5,10,3,·
O=C(COC(=O)c1c[nH]c2ccccc12)Nc1ccccc1,5,1,·,3,·
O=C(/C=C/c1cccc([N+](=O)[O-])c1)N1CCN(c2ccc(F)cc2)CC1,4,3,5,0,2
O=C(COC(=O)C1=COCCO1)Nc1ccc(OC(F)F)cc1,-1,10,-3,1,-4

# Of the compounds above, 2 have a Cl atom:
SMILES,PAFAH1B2 FP inh,PAFAH1B3 inh,PME-1 inh,PAD4 inh,GSTO1 inh
O=C(CCC(=O)N1CCN(S(=O)(=O)c2ccc(Cl)cc2)CC1)Nc1ccc(Cl)cc1Cl,6,4,5,-2,4
CC(C)=CC(=O)OCC(=O)Nc1ncc(Cl)c(C)c1Cl,6,1,-7,-5,2

# Entries of single compounds, quoted from the list. Values in the order: PAFAH1B2 FP inh | PAFAH1B3 inh | PME-1 inh | PAD4 inh | GSTO1 inh
# CN(C)S(=O)(=O)c1cccc(NC(=O)COC(=O)c2cc3ccccc3oc2=O)c1 as listed: 1 | 4 | 4 | 1 | -1
# Cc1ccc2nc(N3C(=O)C(O)=C(C(=O)c4ccc(C)o4)C3c3cccc(O)c3)sc2c1 (stereo not drawn) as listed: -3 | 5 | -14 | -6 | -2
# Cc1ccn2c(=O)nc(SCc3cccc(C(F)(F)F)c3)nc2c1 as listed: 4 | -5 | 5 | -6 | -24

# Some of these compounds in order of their number in PME-1 inh, lowest first:
SMILES | PAFAH1B2 FP inh | PAFAH1B3 inh | PME-1 inh | PAD4 inh
Cc1ccc2nc(N3C(=O)C(O)=C(C(=O)c4ccc(C)o4)C3c3cccc(O)c3)sc2c1 (stereo not drawn) | -3 | 5 | -14 | -6
Cc1ccc([N+](=O)[O-])cc1N=Cc1ccc(Br)s1 | 4 | 4 | -4 | -2
O=C(COC(=O)C1=COCCO1)Nc1ccc(OC(F)F)cc1 | -1 | 10 | -3 | 1
CC(C)Oc1c(Br)cc(Br)cc1/C=N/NC(N)=S | -1 | 5 | 0 | 2
CN(C)S(=O)(=O)c1cccc(NC(=O)COC(=O)c2cc3ccccc3oc2=O)c1 | 1 | 4 | 4 | 1
O=C(CCC(=O)N1CCN(S(=O)(=O)c2ccc(Cl)cc2)CC1)Nc1ccc(Cl)cc1Cl | 6 | 4 | 5 | -2
CC(C)Oc1ccc(C(=O)OCC(=O)NC2CCCCCC2)cc1 | 0 | 5 | 10 | 3

# Source: PubChem BioAssay

# This is a subset, so the mix of outcomes need not match the whole.
